Mtb H37Rv: M. tuberculosis H37Rv growth inhibitors, H37Rv strain (AID 1626); one-dose inhibition, % at 10 µM; IC50 in µM for titrated hits; 220,000 tested, 0.95% active; M. tuberculosis H37Rv growth inhibition; higher % means a stronger effect;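 active means confirmed in a dose series; inconclusive means inhibition above 80% but not taken into the dose series; inactive means below 80% or under 30% at every dose of the series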;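 further: bacteria incubated seven days before Alamar blue readout; 0% = bacteria only wells and 100% = bacteria with antibiotic wells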
YopH PTP inh: YopH tyrosine phosphatase inhibitors, primary screen, biochemical, fluorescence Ex485/Em525; 140,000 tested, 0.16% active; inhibition, %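 (about 10 µM by stock and volumes)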; AID 898, 2007;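 active means inhibition of 50% or more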;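 further: controls were vehicle for no effect and minimum signal wells for full effect; inactives centre near -20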
Arbovirus anti: antivirals against arbovirus infection, primary screen, cell-based, full library, 10K replicate subset | arbovirus infection cell-based antiviral screen | 200,000 tested, 0.37% active | inhibition, % at 10 µM;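 active means inhibition from about 30%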;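 further: bluetongue infection of BSR cells; cell survival read as ATP light after 72 h; 0% = infected wells without compound and 100% = uninfected wells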
RecA intein inh: Mtb RecA intein splicing inhibitors, primary screen, biochemical, fluorescence, HTS. Protein RecA (Mycobacterium tuberculosis (strain ATCC 25618 / H37Rv)), P9WHJ3. cell-free RecA intein splicing. inhibition, %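 (about 9 µM by stock and volumes)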. 290,000 tested, 0.75% active. AID 2221, 2009; in the data active means inhibition above about 30%; inconclusive means no clear call, values can overlap the other calls;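 further: 0% = vehicle wells and 100% = reference inhibitor control wells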
Target sequence (P9WHJ3 whole entry, looked up): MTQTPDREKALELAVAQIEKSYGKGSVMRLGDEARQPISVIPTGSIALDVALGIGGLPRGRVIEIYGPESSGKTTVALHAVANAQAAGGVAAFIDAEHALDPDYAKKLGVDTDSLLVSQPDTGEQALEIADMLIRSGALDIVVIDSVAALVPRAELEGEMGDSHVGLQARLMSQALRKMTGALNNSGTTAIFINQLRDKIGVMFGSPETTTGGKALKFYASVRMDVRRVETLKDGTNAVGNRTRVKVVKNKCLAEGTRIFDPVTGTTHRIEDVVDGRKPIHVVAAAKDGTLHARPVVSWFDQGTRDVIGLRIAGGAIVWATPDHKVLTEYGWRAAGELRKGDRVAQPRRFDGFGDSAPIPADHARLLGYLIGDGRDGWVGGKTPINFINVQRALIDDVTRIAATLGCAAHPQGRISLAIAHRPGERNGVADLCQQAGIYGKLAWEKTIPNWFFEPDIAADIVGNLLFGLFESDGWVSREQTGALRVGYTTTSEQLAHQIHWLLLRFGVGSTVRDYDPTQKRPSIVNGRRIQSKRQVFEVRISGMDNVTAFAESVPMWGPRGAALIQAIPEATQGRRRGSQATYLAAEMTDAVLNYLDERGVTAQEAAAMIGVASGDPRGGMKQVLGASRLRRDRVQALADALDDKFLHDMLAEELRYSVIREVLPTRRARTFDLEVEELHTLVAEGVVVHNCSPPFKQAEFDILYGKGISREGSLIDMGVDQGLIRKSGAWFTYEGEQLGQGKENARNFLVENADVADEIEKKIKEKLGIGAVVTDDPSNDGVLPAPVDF
Mtb bLac sens: beta-lactam sensitization of Mtb H37Rv, H37Rv; M. tuberculosis H37Rv growth with meropenem, percent inhibition; hits of this screen are not shown here; inhibition, % at 25 µM; 330,000 tested, 0.27% active; AID 434955, 2010;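 active means about 74% or more and at least 40 points above the plate without the antibiotic, then above 30% in a dose series; inconclusive means first-round hits that could not be retested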;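 further: growth measured after seven days incubation then overnight dye step; 0% = bacteria only wells and 100% = bacteria with antibiotic; twin plates without the antibiotic show which effects depend on it; some results filed as inactive read as strong as hits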
Arbovirus anti repeat: further read-out of Arbovirus anti, marked with its call; inhibition, %; measured here: 10K subset replicate screen; many hits read low in the repeat;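 first of two repeat runs on a subset; 0% = infected and 100% = uninfected wells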
Numbers without * were called inactive.

What do the screens show for `CC(Sc1nn(-c2ccc(F)cc2)c(=S)s1)C(=O)c1c(N)n(C)c(=O)n(C)c1=O` (centres undefined)?
RecA intein inh: 0.3; Mtb bLac sens: -13

What do the screens show for `COc1ccc(N2C(=O)/C(=C\c3ccco3)N=C2SCC(=O)NC(C)C)cc1Cl`?
Mtb H37Rv: 5%; YopH PTP inh: -8; Arbovirus anti: 11; RecA intein inh: 2.9; Mtb bLac sens: 13

How did COc1cc(O)c(C(CC(=O)N2CCOCC2)c2cc(OC)c(OC)c(OC)c2)c(OC)c1 (centres undefined) do in these assays?
Mtb H37Rv: -13%; RecA intein inh: -2.7

How did O=C(O)C1CC=CCC1C(=O)NCCCCc1ccccc1 (centres undefined) do in these assays?
Mtb H37Rv: 4%; Arbovirus anti: 8; Mtb bLac sens: 0

Results for COCCn1c(=O)[nH]c2cc(C(=O)NCCN3CCN(c4ccc(OC)cc4)CC3)ccc2c1=O ?
Mtb H37Rv: 3%; YopH PTP inh: -79; Arbovirus anti: -2; RecA intein inh: -3.3; Mtb bLac sens: -3

How did O=[N+]([O-])c1ccc(N/N=C/c2sc(N3CCOCC3)nc2-c2ccccc2)c(S(=O)(=O)Nc2ccc(Cl)cc2)c1 do in these assays?
Mtb H37Rv: inconclusive; Arbovirus anti: -5; RecA intein inh: -3.1

Results for Cc1cccc(C)c1NC(=O)NC1(C(=O)NCCN2CCOCC2)CCCCC1 ?
Mtb H37Rv: -3%; Arbovirus anti: 5; RecA intein inh: -0.5; Mtb bLac sens: -9

What do the screens show for `COCCn1nnnc1C(c1ccc2ncccc2c1)N1CCc2ccccc21` (centres undefined)?
Mtb H37Rv: 3%; YopH PTP inh: -33; Arbovirus anti: 4; RecA intein inh: 2.2; Mtb bLac sens: 6

What do the screens show for `CCNC(=S)NNC(=O)c1cc(-c2cccnc2)nc2ccccc12`?
Mtb H37Rv: 13%; Arbovirus anti: -1; RecA intein inh: 3.3; Mtb bLac sens: -5

How did CC(NC(=O)c1cccc(S(=O)(=O)N(C)C)c1)C1CC2CCC1C2 (centres undefined) do in these assays?
RecA intein inh: 4.2; Mtb bLac sens: -7

How did C/C(CC(=O)Nc1c(Cl)cccc1C(F)(F)F)=N\NC(=O)c1cnccn1 do in these assays?
RecA intein inh: 4.5; Mtb bLac sens: 0

How did Cc1ccc(Cl)cc1-n1c(O)c(C=NCCCN2CCOCC2)c(=O)[nH]c1=O do in these assays?
Mtb H37Rv: -6%; YopH PTP inh: -15; Arbovirus anti: 6; RecA intein inh: -2.3; Mtb bLac sens: -6

Results for C(#Cc1ccc(C#CCN2CCCC2)cc1)CN1CCCC1 ?
YopH PTP inh: 5; Arbovirus anti: 22; RecA intein inh: 0.1

What do the screens show for `Cc1ccc(-n2ccc(=O)c(C(=O)Nc3ccc(S(=O)(=O)Nc4nccs4)cc3)n2)cc1`?
RecA intein inh: -1.5; Mtb bLac sens: 1

What do the screens show for `FC(F)(F)c1nnc2c(Sc3ccccc3)nc3ccc(Cl)cc3n12`?
Mtb H37Rv: -1%; YopH PTP inh: -26; Arbovirus anti: -27; RecA intein inh: 5.3; Mtb bLac sens: -9

Results for Cc1ccc(NC(=O)CCc2nc3ccccc3[nH]2)cc1C ?
Mtb H37Rv: -8%; RecA intein inh: -0.2; Mtb bLac sens: -2

What do the screens show for `Cc1cc(N2CCOCC2)n2nc(C(F)(F)F)c(-c3ccccc3)c2n1`?
RecA intein inh: 0.2; Mtb bLac sens: 4

Results for COC(=O)N/N=C/c1cn(CCOc2ccc(OC)cc2)c2ccccc12 ?
RecA intein inh: 3.3; Mtb bLac sens: 2

How did C1=C(CCNCC2CCCCC2)CCCC1 do in these assays?
YopH PTP inh: -6; Arbovirus anti: -7; RecA intein inh: -0.9; Mtb bLac sens: -3

How did CC(C)N(Cc1cnn(C)c1)Cc1nc(COc2ccccc2)no1 do in these assays?
Mtb H37Rv: 0%; Arbovirus anti: -1; RecA intein inh: 0.6; Mtb bLac sens: 4

How did CN(CC(=O)Nc1ccc(OC(F)(F)F)cc1)C(=O)Cc1c(Cl)cccc1Cl do in these assays?
RecA intein inh: 3.3; Mtb bLac sens: -9

How did COC(=O)C1=C(C)NC(=S)NC1/C=C/c1ccccc1 (centres undefined) do in these assays?
Mtb H37Rv: 9%; Arbovirus anti: 9; RecA intein inh: -1.8; Mtb bLac sens: 7

How did Cc1sc(Cc2nc(O)cs2)nc1-c1ccccc1 do in these assays?
Mtb H37Rv: 23%; Arbovirus anti: -8; RecA intein inh: -2.9; Mtb bLac sens: 1

Results for CCn1c(SCC(=O)NCC2CCCO2)nc2cc(S(=O)(=O)N3CCCCC3)ccc21 (centres undefined) ?
Mtb H37Rv: -4%; YopH PTP inh: -36; Arbovirus anti: -5; RecA intein inh: -1.8; Mtb bLac sens: 0

How did Cc1nn(Cc2ccccc2)c(Cl)c1C(=O)OC1CCOC1=O (centres undefined) do in these assays?
Mtb H37Rv: 4%; YopH PTP inh: -37; Arbovirus anti: 17; RecA intein inh: 0.1; Mtb bLac sens: 4

Results for CSc1nnc(NC(=O)C23CC4CC(CC(C4)C2)C3)s1 ?
RecA intein inh: -1.0; Mtb bLac sens: 6

What do the screens show for `C=CCn1c(Br)nc2c1c(=O)[nH]c(=O)n2C`?
Mtb H37Rv: -2%; YopH PTP inh: -16; Arbovirus anti: 9; RecA intein inh: -2.3; Mtb bLac sens: 0

Results for CCn1nc(NS(=O)(=O)c2ccc(NC(C)=O)cc2)c2cc3cccc(C)c3nc21 ?
RecA intein inh: -5.1; Mtb bLac sens: -7

What do the screens show for `CCc1ccc(/C=N/NC(=O)c2ccc(OC3CCCC3)cc2)s1`?
Mtb H37Rv: -7%; YopH PTP inh: 9; Arbovirus anti: -5; RecA intein inh: -1.6; Mtb bLac sens: 3

Results for Cc1cc(C)n(-c2ccc3cccc(NS(C)(=O)=O)c3n2)n1 ?
Mtb H37Rv: 10%; YopH PTP inh: -22; Arbovirus anti: -37; RecA intein inh: -2.0; Mtb bLac sens: 12

How did N#Cc1nc(N2CCCC2)nc(N2CCCC2)n1 do in these assays?
Mtb H37Rv: 11%; YopH PTP inh: -44; Arbovirus anti: -3; RecA intein inh: 5.9; Mtb bLac sens: 2

Results for Cc1ccc(CSc2nc3c(c(SCC(=O)O)n2)CCCC3)cc1 ?
Mtb H37Rv: -4%; YopH PTP inh: -35; Arbovirus anti: 7; RecA intein inh: 7.5; Mtb bLac sens: -4

Results for CC(NC(=O)c1cc(COc2c(F)cccc2F)on1)c1cnn(-c2ccccc2)c1 (centres undefined) ?
Mtb H37Rv: 15%; Arbovirus anti: -3; RecA intein inh: 11; Mtb bLac sens: -7

How did O=C(CSc1nnnn1-c1cccc(C(=O)O)c1)NC(c1ccccc1)c1ccccc1 do in these assays?
Mtb H37Rv: -33%; Arbovirus anti: 5; RecA intein inh: 1.8; Mtb bLac sens: 2

What do the screens show for `COc1ccccc1NC(=O)NNC(=O)c1ccc(-c2ccccc2)cc1`?
RecA intein inh: 6.7; Mtb bLac sens: 28

Results for CCCCCC(=O)Nc1cc(S(=O)(=O)N2CCOCC2)ccc1Oc1ccc(OCC)cc1 ?
RecA intein inh: -1.7; Mtb bLac sens: -6

Results for O=S(=O)(CCc1nc2ccccc2o1)c1ccc2ccccc2c1 ?
Mtb H37Rv: -2%; YopH PTP inh: 0; Arbovirus anti: 6; RecA intein inh: -1.7; Mtb bLac sens: -4

What do the screens show for `COC(=O)c1ccc(C(=O)NN)cc1`?
Mtb H37Rv: -3%; RecA intein inh: -2.2; Mtb bLac sens: 1

What do the screens show for `COC(=O)c1c(-c2ccc(C)cc2)csc1NC(=O)c1c(-c2ccccc2)noc1C`?
Mtb H37Rv: 6%; YopH PTP inh: -24; Arbovirus anti: 2; RecA intein inh: 5.9; Mtb bLac sens: 9

How did Cn1c(=O)c2c(SCC(=O)NCC3CCCO3)nc(CC(C)(C)C)nc2n(C)c1=O (centres undefined) do in these assays?
RecA intein inh: -1.6; Mtb bLac sens: 3

How did O=C(Nc1cccc(S(=O)(=O)N2CCOCC2)c1)[C@@H]1CCCN1S(=O)(=O)c1ccc(Cl)cc1 do in these assays?
Mtb H37Rv: 3%; YopH PTP inh: 4; Arbovirus anti: -6; RecA intein inh: 0.6; Mtb bLac sens: 2

What do the screens show for `CCCn1c(=O)c2c(nc3n2CCCN3CCc2ccc(OC)c(OC)c2)n(C)c1=O`?
RecA intein inh: 2.7; Mtb bLac sens: 1

Results for O=C(CCNS(=O)(=O)c1cccc2nonc12)NCc1cccs1 ?
Mtb H37Rv: -2%; YopH PTP inh: -37; Arbovirus anti: 1; RecA intein inh: 0.9; Mtb bLac sens: 6; Arbovirus anti repeat: 6

How did CCCCCN1C=CC(=C2C(=O)c3ccccc3C2=O)C=C1 do in these assays?
Mtb H37Rv: -7%; Arbovirus anti: -30; RecA intein inh: 1.3; Mtb bLac sens: 4

Results for CC(C)C[C@H](NC(=O)C1CC(=O)N(c2ccc(F)cc2)C1)C(=O)N1CCCCC1 (some centres undefined) ?
RecA intein inh: -2.7; Mtb bLac sens: -3

Results for O=C(c1ccco1)N1CCN(S(=O)(=O)Cc2ccccc2Cl)CC1 ?
Mtb H37Rv: -26%; Arbovirus anti: 6; RecA intein inh: 5.1; Mtb bLac sens: -7

How did COc1ccc(NC(=O)c2cc(-c3cccs3)on2)c(OC)c1 do in these assays?
RecA intein inh: 1.3; Mtb bLac sens: -10

Results for Nc1c(C(=O)NCc2ccc3c(c2)OCO3)nnn1Cc1cccc(F)c1 ?
Mtb H37Rv: -3%; RecA intein inh: -1.9; Mtb bLac sens: -2

Results for O=C(Cc1csc(-c2ccccc2)n1)NCc1ccccc1F ?
Mtb H37Rv: 7%; YopH PTP inh: -26; Arbovirus anti: -7; RecA intein inh: 4.2; Mtb bLac sens: 5

What do the screens show for `COc1ccc(CC(=O)NN2C(=O)c3ccccc3C2=O)cc1`?
Mtb H37Rv: 1%; YopH PTP inh: -17; Arbovirus anti: 1; RecA intein inh: -3.1; Mtb bLac sens: 1

Results for Fc1ccc(-c2nnc(-c3ccc(Cl)cc3)o2)cc1 ?
Mtb H37Rv: 7%; YopH PTP inh: -40; Arbovirus anti: -5; RecA intein inh: 1.7; Mtb bLac sens: -4

What do the screens show for `CCc1nnc(NC(=O)CN2CCN(S(C)(=O)=O)CC2)s1`?
RecA intein inh: -2.0; Mtb bLac sens: 4

How did CN1CCSc2ccc(C(=O)NCc3ccccc3F)cc21 do in these assays?
RecA intein inh: -15; Mtb bLac sens: -5

What do the screens show for `CCCCn1c(N)c(N(CC(C)C)C(=O)CCS(=O)(=O)c2ccc(C)cc2)c(=O)[nH]c1=O`?
RecA intein inh: -0.9; Mtb bLac sens: 4

What do the screens show for `CCN(CC(=O)Nc1ccccc1C(F)(F)F)C(=O)Cc1sc(C)nc1-c1ccc(F)cc1`?
RecA intein inh: 2.7; Mtb bLac sens: -13

What do the screens show for `CCSc1nc2sc3c(c2c(=O)[nH]1)CC(C)(C)OC3`?
RecA intein inh: -0.9; Mtb bLac sens: -1

4 neighbouring records already listed, quoted:
How did CN1CCSc2ccc(C(=O)NCc3ccccc3F)cc21 do in these assays?
RecA intein inh: -15; Mtb bLac sens: -5

What do the screens show for `CCCCn1c(N)c(N(CC(C)C)C(=O)CCS(=O)(=O)c2ccc(C)cc2)c(=O)[nH]c1=O`?
RecA intein inh: -0.9; Mtb bLac sens: 4

What do the screens show for `CCN(CC(=O)Nc1ccccc1C(F)(F)F)C(=O)Cc1sc(C)nc1-c1ccc(F)cc1`?
RecA intein inh: 2.7; Mtb bLac sens: -13

What do the screens show for `CCSc1nc2sc3c(c2c(=O)[nH]1)CC(C)(C)OC3`?
RecA intein inh: -0.9; Mtb bLac sens: -1

Looked up by compound from above:
Results for O=C(c1ccco1)N1CCN(S(=O)(=O)Cc2ccccc2Cl)CC1 ?
Mtb H37Rv: -26%; Arbovirus anti: 6; RecA intein inh: 5.1; Mtb bLac sens: -7

Results for O=C(Cc1csc(-c2ccccc2)n1)NCc1ccccc1F ?
Mtb H37Rv: 7%; YopH PTP inh: -26; Arbovirus anti: -7; RecA intein inh: 4.2; Mtb bLac sens: 5

What do the screens show for `CCCCn1c(N)c(N(CC(C)C)C(=O)CCS(=O)(=O)c2ccc(C)cc2)c(=O)[nH]c1=O`?
RecA intein inh: -0.9; Mtb bLac sens: 4

Some of the compounds tested; rates above refer to the full screens.
